Bioassay records from PubChem BioAssay.
PABP FP inh – blocks human PABP binding to poly(A) RNA | fluorescence polarization | 1% of 290,000 active | inhibition, % at 35 µM | P11940;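 active means 50% or more with normal probe brightness, or confirmed in later tests; inconclusive means above 50% with abnormal brightness, or retests that disagree; inactive means below 50% or failed in later tests; about a fifth of its hits are not listed in these tables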;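 further: calls also rest on retests at 20 µM and on dose response follow-up; controls were probe without protein and protein plus probe with vehicle; some compounds called inactive have numbers as strong as hits; many hits fall short of the cut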
Target sequence (P11940 whole entry, looked up): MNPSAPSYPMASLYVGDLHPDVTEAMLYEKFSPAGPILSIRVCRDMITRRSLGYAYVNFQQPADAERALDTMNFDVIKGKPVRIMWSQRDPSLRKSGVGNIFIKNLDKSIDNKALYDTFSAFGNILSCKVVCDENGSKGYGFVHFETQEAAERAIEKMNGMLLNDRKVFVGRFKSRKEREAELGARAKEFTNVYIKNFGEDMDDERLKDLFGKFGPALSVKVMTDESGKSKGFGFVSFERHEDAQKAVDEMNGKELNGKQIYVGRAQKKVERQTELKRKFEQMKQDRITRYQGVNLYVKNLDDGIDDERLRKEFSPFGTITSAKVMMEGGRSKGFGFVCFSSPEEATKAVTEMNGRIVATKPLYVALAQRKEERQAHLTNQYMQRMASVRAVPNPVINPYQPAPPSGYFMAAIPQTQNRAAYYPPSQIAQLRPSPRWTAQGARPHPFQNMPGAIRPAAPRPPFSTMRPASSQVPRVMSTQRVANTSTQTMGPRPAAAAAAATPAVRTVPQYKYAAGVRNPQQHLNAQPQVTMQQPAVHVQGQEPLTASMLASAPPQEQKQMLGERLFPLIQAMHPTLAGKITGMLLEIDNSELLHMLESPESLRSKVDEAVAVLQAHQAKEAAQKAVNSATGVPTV
Yeast UUG start – alters start codon recognition fidelity in yeast. S. cerevisiae UUG-firefly luciferase reporter, luminescence/redox ratio. activity score, % at 18.7 µM. 0.13% of 350,000 active. AID 602363;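 active means replicate mean at a twofold rise or more, about +100% in these data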;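 further: firefly luciferase made from a UUG start codon reports start codon fidelity; reporter light over untreated wells divided by growth signal over untreated wells; some hits fall short of that in this replicate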
CSC inhib – blocks cancer stem cells. inhibition, % at 7.5 µM. 1.1% of 300,000 active. cancer stem cell-like cells viability, luminescence;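 active means mean at 75% or more and at least half the replicates too; inconclusive means mean and replicates disagree; tested in HMLE shEcad cells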;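 further: 0% = median of negative and 100% = median of positive control wells; the first replicate is given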
HIV Env fusion – HIV envelope-mediated fusion inhibition | inhibition, % at 12.3 µM | 1.1% of 360,000 active | AID 651610 | HeLa-JRFL Env/CEM21 cell fusion, luciferase;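 active means mean replicate inhibition score of at least 50 and every replicate individually at or above 50; inconclusive means only one of the two criteria met; inactive means mean below 50 and not all replicates reaching 50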;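 further: 0% = plate neutral controls and 100% = maraviroc near 300 nM; one replicate is shown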
Rce1 inhib – blocks yeast Ras-converting enzyme | calls only | AID 2563 | Q03530 | yeast membranes, quenched prenylated peptide cleavage fluorescence | 0.27% of 290,000 active;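 active means fall in fluorescence gain of 50% or more versus controls, with final raw signal at or below 3038400; inconclusive means same 50% fall but final raw signal above 3038400; inactive means fall in fluorescence gain under 50%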;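 further: plate controls were neutral control wells for no effect and wells lacking membranes for full effect; tested at 10 µM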
eIF4H inh – inhibitors of RNA binding by human eIF4H. AID 2012. Q15056. 0.94% of 290,000 active. inhibition, % at 35 µM. eIF4H fluorescence polarization binding assay;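 active means 50% or more with normal probe brightness, or confirmed in later tests; inconclusive means above 50% with abnormal brightness, or retests that disagree; inactive means below 50% or failed in later tests; about a fifth of its hits are not listed in these tables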;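 further: calls also rest on retests at 20 µM and on dose response follow-up; 0% = protein and probe with vehicle and 100% = probe without protein; strong numbers were not always called active; many hits fall short of the cut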
MT1-MMP act inh – inhibitors of human MT1-MMP activation; P50281; HT1080 RFP-PRO-GFP cells, GFP/RFP ratio fluorescence, overnight; percent of plate control window, DMSO zero; GFP/RFP ratio change, % at 20 µM; 0.061% of 360,000 active; AID 651647;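 active means GFP/RFP ratio change of at least 30% with cell ATP level not reduced by more than half and red fluorescence within 50% of control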; further: strong numbers were not always called active
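Material: RFP-PRO-GFP reporter HT1080 cells. Dosing: single-point 20 µM compound, 1% DMSO. Controls: DMSO and RFP-L50D-GFP cell wells. Timing: cells overnight before dosing, compound overnight, 37 °C, 5% CO2. Measure: GFP/RFP fluorescence ratio.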
eIF4H inh retest – recorded beside eIF4H inh, whose call it bears; inhibition, %; compound at 20 µM; confirmation average;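 mean of two retest wells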
PABP FP inh retest – also measured in PABP FP inh; calls as there; inhibition, %; compound at 20 µM; confirmation repeats;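 mean of two retest wells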
MT1-MMP act inh RFP – further read-out of MT1-MMP act inh, marked with its call; RFP signal change, %; measured here: RFP expression control read;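 0 = vehicle wells; hits needed this value within 50% of zero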
Numbers without * were called inactive; i = inactive; u = inconclusive; x = no result given.

SMILES	PABP FP inh	Yeast UUG start	CSC inhib	HIV Env fusion	Rce1 inhib	eIF4H inh	MT1-MMP act inh	MT1-MMP act inh RFP	others
CCCN1CCN(CCCNC(=O)CN2C(=O)COc3ccc(C(C)(C)C)cc32)CC1	x	8	x	-7	x	x	0	-1
CCN(CC(=O)Nc1c(F)cccc1F)C(=O)CNC(=O)c1cccs1	x	-9	x	x	i	x	4	1
O=C(Cn1cc(C(=O)c2ccco2)c2ccccc21)NC1CC1	-2	x	-14	-3	i	-3	-1	0
COc1ccc2c(CC(=O)N(C)CC3COc4ccccc4O3)coc2c1 (stereo not given)	-1	16	-6	u	i	2	-4	-7
CC(=O)Nc1ccn(Cc2c(F)cccc2Cl)n1	5	x	-5	-17	i	-1	5	6
COc1ccc2oc(=O)c(N3C(=O)c4ccccc4C3=O)cc2c1	-1	-14	x	14	i	-9	-1	3
Cc1c(C(=O)NC2CCOC2)oc2c(F)cccc12 (stereo not given)	-10	-20	11	-62	i	4	-1	0
COCCNC(=O)C(C(=O)c1ccc(F)cc1)n1cc(C)ccc1=O (stereo not given)	-2	x	0	21	i	-5	1	4
CCn1c(SCc2cccc(F)c2)nc2c(c1=O)SCC2	-3	15	5	24	i	-2	0	0
CCOc1ccc(-n2c(SCC(=O)Nc3ccc(C(=O)O)cc3)nc3ccccc3c2=O)cc1	-4	-5	-7	0	i	3	1	2
CCOc1ccc(NC(=O)CC2NCCNC2=O)cc1 (stereo not given)	-4	-14	-7	x	i	1	1	1
Cc1cc(/C=N/NC(=O)Cn2c3ccccc3c(=O)c3ccccc32)c(C)n1-c1ccccc1	0	x	-8	x	i	-4	2	2
CCSC1=NCCN1C(=O)c1ccc(S(=O)(=O)N(CC)CC)cc1	10	x	-7	-3	i	-2	0	1
O=C(CSc1ccccc1)N1CCc2ccccc21	-5	-35	-6	x	i	2	-2	4
CCCC(=O)Oc1ccc(C2NC(=O)c3ccccc3O2)cc1OC (stereo not given)	0	-11	-9	12	i	6	0	3
CCOC(=O)N1CCN(C(=O)CCCCCn2c(=S)[nH]c3ccsc3c2=O)CC1	17	x	-12	-3	x	0	2	5
C=CCc1c(C)nc(C)nc1N/N=C/c1ccccc1	8	-18	-6	x	i	-2	0	3
OCCc1ccc(NCCc2ccco2)cc1	x	-3	x	-3	x	x	4	7
Cc1ccccc1Cn1ccc(NC(=O)c2cnn3c2NC(c2ccccc2)CC3C(F)(F)F)n1 (stereo not given)	-3	-21	26	u	i	-4	-21	-16
O=C1c2ccccc2NC2(CCCC2)N1NS(=O)(=O)c1ccccc1	1	x	-2	45	i	-1	-4	-3
O=C(CSc1nnc(COc2ccccc2Cl)o1)NC(=O)NCc1ccco1	16	x	0	4	i	78	-2	-4	eIF4H inh retest=-3;PABP FP inh retest=3
COc1ccc(-c2csc(Nc3ncccc3C)n2)cc1OC	-5	-5	-2	x	i	-10	-1	-3
CCOC(=O)c1ccc(N2C(=O)CC(N3CCOCC3)C2=O)cc1 (stereo not given)	-2	-21	9	x	i	-5	-1	0
CCOC(=O)CC1C(=O)NCCN1C(=S)Nc1ccccc1 (stereo not given)	-4	x	-9	x	i	0	3	7
O=C(CNC(c1ccccc1)c1ccccc1)Nc1ccccc1-c1ccccc1	22	x	39	-5	i	-12	-28	-31
COc1ccc(-c2nc3n(n2)C(c2ccncc2)C(C(N)=O)=C(C)N3)cc1 (stereo not given)	8	-13	-6	-28	i	3	-1	6
O=C(CN1C(=O)CCC1=O)Nc1nc2c(F)cc(F)cc2s1	x	-6	-7	-27	i	x	-1	1
c1ccc2c3c(cc(N4CCOCC4)c2c1)OC1(N2CCOCC2)CCCCC1O3 (stereo not given)	-4	6	-1	x	i	0	0	4
O=C(CCc1cccc(Cl)c1)NC1CCCN(Cc2ccccc2F)C1 (stereo not given)	4	-14	1	13	i	-3	-2	0
Cc1ccc(C2NCCS2)cc1 (stereo not given)	-1	-13	-7	-1	i	-2	-1	2
COc1cccc(C(=O)Nc2cccc3c2ccc2cccn23)c1	8	x	28	-14	i	28	-11	-5
COc1ccccc1NS(=O)(=O)c1ccc(C)c(C(=O)NNC(=O)c2csc(N3CCOCC3)n2)c1	x	-6	-12	7	x	x	-1	-2
CC(C)Oc1ccc(C(=O)OCC(=O)c2ccc[nH]2)cc1	x	-14	-3	x	x	x	-1	0
CNC(=O)C1CN(C(=O)c2nn(Cc3ccccc3)c(=O)c3ccccc23)c2ccccc2O1 (stereo not given)	x	17	x	-12	x	x	-8	-5
O=C(NN=C1C2CC3CC(C2)CC1C3)c1ccncc1	-3	-8	1	x	i	-2	10	6
CCCCOC(=O)c1c(C)oc2ccc(NS(=O)(=O)c3ccc4c5c(cccc35)C(=O)N4)cc12	2	-21	u	2	i	7	-3	-9
O=C(CN1CCN(S(=O)(=O)N2CCCCCC2)CC1)Nc1ccc(F)cc1	-3	-7	9	-9	i	-7	2	0
Cc1sc2ncnc(Sc3nnnn3-c3ccccc3)c2c1C	-5	0	52	x	i	1	-1	-4
CCn1nnc(NC(=O)c2cc(Cl)c(OC)c(Cl)c2)n1	-1	-12	-10	-15	i	4	3	4
Cc1[nH]c2c(C)cccc2c(=O)c1CN1CCCCCC1	10	x	4	-2	i	-2	3	3
C=CCn1sc(=N)c(C#N)c1N	8	-25	9	x	i	-6	-3	0
CC(C)(C)c1ccc(C(=O)N2CCC(NC(=O)c3ccccc3)CC2)cc1	7	-2	-4	-7	i	12	-3	-2
C=CCn1c(SCC(=O)Nc2ccc(N3CCOCC3)cc2)nnc1-c1ccco1	7	-12	5	2	i	-4	1	3
Cc1ccc(NC(=O)COC(=O)c2ccc3c(=O)n4c(nc3c2)CCC4)c(Br)c1	x	3	-4	-7	x	x	3	2
CCOC(=O)[C@H]1[C@H]2COc3ccccc3[C@@H]2N2C(=O)c3ccc(C)cc3NC(=O)[C@@]12C	x	-19	-13	-145	x	x	-5	0
O=C(Nc1cccc(F)c1)N1CC=C(n2c(=O)[nH]c3ccccc32)CC1	0	0	6	x	i	-1	4	-8
CC(C)CCN1CCN(Cc2nc3c(s2)CCCC3)CC1CCO (stereo not given)	-11	-11	34	-2	i	3	3	2
Nc1ncnc2c1ncn2[C@@H]1O[C@H](CNCc2ccccc2OCc2ccc(Cl)cc2Cl)[C@@H](O)[C@H]1O	x	0	x	-42	x	x	-1	-2
COc1ccc(OC)c(CNC(=O)C2CCN(S(C)(=O)=O)CC2)c1	-9	x	-2	-4	i	14	2	2
COc1ccc(-n2c3c(cc(C(=O)NNc4ccccc4)c2=O)C(=O)CC(C)(C)C3)cc1	3	x	-1	0	i	1	2	1
COc1ccc2nc(SCC(N)=O)cc(C)c2c1	1	-9	0	x	i	3	3	3
CCCNS(=O)(=O)c1ccc(-n2cnnn2)c(OC)c1	-7	-9	-8	-9	i	-7	4	6
CCCCC1CCC(C(=O)NC2CCS(=O)(=O)C2)CC1 (stereo not given)	0	-12	-3	x	i	-3	3	2
Cc1cc2c(=O)n(Cc3ccco3)c(SCC(=O)N3CCCc4ccccc43)nc2s1	-8	6	17	x	i	-8	-10	-14
Cc1ccc(-c2ccc(C(=O)NCc3ccccc3)o2)c2ccccc12	6	-2	32	x	i	0	-2	7
CCC(C(=O)NCc1cccc(C)c1)n1nc(C)c2c(C)n(-c3ccccc3)nc2c1=O (stereo not given)	8	-1	-3	2	i	-18	1	-7
COc1cccc(C2CC(c3cccc(NS(C)(=O)=O)c3)=NN2C(=O)c2ccccc2)c1OC (stereo not given)	88	1	-7	x	i	-5	-7	-5	eIF4H inh retest=-13;PABP FP inh retest=6
CCOC(=O)N1CCN(C(=O)CSc2nnc(CNC(=O)c3ccccc3F)o2)CC1	8	-4	2	-21	i	-7	-5	2
CN(C)c1nc(N2CCN(c3ccc(F)cc3)CC2)c(C#N)c(=O)o1	9	-6	x	-26	i	-11	-1	-4
CN(CCCNC(=O)COc1cc(=O)n(C)c2ccccc12)Cc1ccccc1	8	-14	19	-8	i	2	-1	-5

No new results follow: an excerpt of the list.
SMILES	PABP FP inh	Yeast UUG start	CSC inhib	HIV Env fusion	Rce1 inhib	eIF4H inh	MT1-MMP act inh	MT1-MMP act inh RFP	others
CN(C)c1nc(N2CCN(c3ccc(F)cc3)CC2)c(C#N)c(=O)o1	9	-6	x	-26	i	-11	-1	-4
CN(CCCNC(=O)COc1cc(=O)n(C)c2ccccc12)Cc1ccccc1	8	-14	19	-8	i	2	-1	-5

Taken from the listing for reference:
SMILES	PABP FP inh	Yeast UUG start	CSC inhib	HIV Env fusion	Rce1 inhib	eIF4H inh	MT1-MMP act inh	MT1-MMP act inh RFP	others
CCOc1ccc(-n2c(SCC(=O)Nc3ccc(C(=O)O)cc3)nc3ccccc3c2=O)cc1	-4	-5	-7	0	i	3	1	2
CCOc1ccc(NC(=O)CC2NCCNC2=O)cc1 (stereo not given)	-4	-14	-7	x	i	1	1	1
Cc1cc(/C=N/NC(=O)Cn2c3ccccc3c(=O)c3ccccc32)c(C)n1-c1ccccc1	0	x	-8	x	i	-4	2	2
CCSC1=NCCN1C(=O)c1ccc(S(=O)(=O)N(CC)CC)cc1	10	x	-7	-3	i	-2	0	1
O=C(CSc1ccccc1)N1CCc2ccccc21	-5	-35	-6	x	i	2	-2	4
CCCC(=O)Oc1ccc(C2NC(=O)c3ccccc3O2)cc1OC (stereo not given)	0	-11	-9	12	i	6	0	3
CCOC(=O)N1CCN(C(=O)CCCCCn2c(=S)[nH]c3ccsc3c2=O)CC1	17	x	-12	-3	x	0	2	5
C=CCc1c(C)nc(C)nc1N/N=C/c1ccccc1	8	-18	-6	x	i	-2	0	3
OCCc1ccc(NCCc2ccco2)cc1	x	-3	x	-3	x	x	4	7
Cc1ccccc1Cn1ccc(NC(=O)c2cnn3c2NC(c2ccccc2)CC3C(F)(F)F)n1 (stereo not given)	-3	-21	26	u	i	-4	-21	-16
O=C1c2ccccc2NC2(CCCC2)N1NS(=O)(=O)c1ccccc1	1	x	-2	45	i	-1	-4	-3
O=C(CSc1nnc(COc2ccccc2Cl)o1)NC(=O)NCc1ccco1	16	x	0	4	i	78	-2	-4	eIF4H inh retest=-3;PABP FP inh retest=3
COc1ccc(-c2csc(Nc3ncccc3C)n2)cc1OC	-5	-5	-2	x	i	-10	-1	-3
CCOC(=O)c1ccc(N2C(=O)CC(N3CCOCC3)C2=O)cc1 (stereo not given)	-2	-21	9	x	i	-5	-1	0

Next part:
SMILES	PABP FP inh	Yeast UUG start	CSC inhib	HIV Env fusion	Rce1 inhib	eIF4H inh	MT1-MMP act inh	MT1-MMP act inh RFP	others
Cc1csc(SC(C)C(=O)Nc2ccc3c(c2)OCCO3)n1 (stereo not given)	-10	-16	-4	-8	i	-5	2	0
COC(=O)[C@H]1C[C@@H]1[C@H](N)c1ccccc1	3	-17	-3	-104	i	8	2	2
CN1/C(=C\C(=O)C[n+]2cccc(C(N)=O)c2)C(C)(C)c2ccccc21	12	-3	-4	-15	i	-1	1	-1
C=CCNC(=O)NC(=O)Cn1c(=O)c2c(ncn2CC)n(Cc2ccccc2)c1=O	8	-7	4	14	i	5	1	3
